Screening data deposited in PubChem by Vanderbilt University.
GIRK2 activ: activators of human GIRK2 potassium channels | G protein-activated inward rectifier potassium channel 2 (Homo sapiens), P48051 | HEK293-GIRK2 thallium flux, Thallos fluorescence | calls only for hits at 25 µM | 63,000 tested, 0.05% active;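 active = among the strongest 0.2% of first-round signals and kept after retests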;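 also: first round at about 10 µM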
Target sequence (P48051 whole entry, looked up): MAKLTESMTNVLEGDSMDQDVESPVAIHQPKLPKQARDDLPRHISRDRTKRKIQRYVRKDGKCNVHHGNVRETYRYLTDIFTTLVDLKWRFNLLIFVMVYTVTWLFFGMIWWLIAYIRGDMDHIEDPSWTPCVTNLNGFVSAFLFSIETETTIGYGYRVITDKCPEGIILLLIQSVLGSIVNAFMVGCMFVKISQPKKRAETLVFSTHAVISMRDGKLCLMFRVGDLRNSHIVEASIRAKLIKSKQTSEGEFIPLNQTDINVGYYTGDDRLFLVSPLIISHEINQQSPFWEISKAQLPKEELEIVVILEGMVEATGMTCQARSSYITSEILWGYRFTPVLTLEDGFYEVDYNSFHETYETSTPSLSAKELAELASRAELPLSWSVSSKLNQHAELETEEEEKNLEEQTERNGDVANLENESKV
Calls only; i = inactive.

SMILES	GIRK2 activ
Cc1ccc(-n2ccnc(SCC(=O)Nc3ccccc3F)c2=O)cc1	i
Cc1nc(-c2cccs2)sc1CNC(=O)c1ccc(=O)[nH]c1	i
CC(=O)Nc1ccc(S(=O)(=O)N2CC(c3nc(C4CC4)no3)C2)cc1	i
CN(C)S(=O)(=O)c1ccc(C(=O)NCCCS(=O)(=O)N2CCN(c3ccccn3)CC2)cc1	i
Cc1ccccc1C(=O)N1CC2CC1C(=O)O2 (centres undefined)	i
COc1nn(C)cc1C(=O)N1CCN(C(=O)C2CC2c2ccccc2)CC1 (centres undefined)	i
O=C(/C=C/c1ccc(F)cc1)Nc1ccccc1-c1ccc(=O)[nH]n1	i
CCC1SC(CC)C(=O)N(CC(=O)NC2CCCCC2)C1=O (centres undefined)	i
CCOc1ccccc1NC(=O)N1CCOC2(CCOCC2)C1	i
O=C(NCC1CCN(Cc2cccs2)CC1)c1cnccn1	i
O=C(NCCc1csc2nc(-c3ccccc3F)nn12)c1cnn(-c2ccccc2)n1	i
O=C(Nc1cc(F)ccc1F)C1CCCN(c2ccc(-c3ccc(F)cc3)nn2)C1 (centres undefined)	i
CC(=O)c1ccc(NC(=O)c2nnn(-c3cccc(C)c3)c2C(C)C)cc1	i
O=S(=O)(C1CCCCC1)N1CC(c2nc(-c3cccnc3)no2)C1	i
Cc1cc(C(O)CCNC(=O)NCc2cccs2)c(C)o1 (centres undefined)	i
CSCCC(C)(O)CNC(=O)NCc1cccs1 (centres undefined)	i
CSc1cccc(NC(=O)c2nnn(-c3ccc(Cl)cc3)n2)c1	i
CS(=O)(=O)N1CCN(C(=O)C2(c3ccccc3)CCOCC2)CC1	i
Cn1c(-c2ccccn2)nn(CCNC(=O)C2c3ccccc3Oc3ccccc32)c1=O	i
COc1ccc(-c2csc3c(=O)n(CC(=O)N(C)c4ccc(F)cc4)cnc23)cc1	i
O=C(NCc1cccnc1)c1coc(NC(=O)C2CC2)n1	i
CCOC(=O)c1ccccc1NCc1cc(=O)oc2cc(OC)ccc12	i
COc1ccc(NC(=O)CN2N=NC3C(=O)N(c4ccc(F)c(F)c4)C(=O)C32)cc1Cl (centres undefined)	i
O=C(CSc1nc2[nH]ncc2c(=O)n1-c1ccccc1)NCC1CCCO1 (centres undefined)	i
Cn1cc(-c2ccco2)nc1CCNC(=O)c1cc(-c2ccccc2)on1	i
O=C(CCCCCn1c(=O)[nH]c2ccsc2c1=O)NCc1ccccc1Cl	i
CSc1nc2n(n1)C(/C=C/c1ccccc1)C(C(N)=O)=C(C)N2 (centres undefined)	i
O=C1/C(=C/c2cccnc2)SC(=S)N1c1ccc2c(c1)OCCO2	i
O=C(NCc1ccccc1)NC1CCCCC1N1C(=O)CSC1=O (centres undefined)	i
Cc1c(C(=O)Nc2ccc(C(=O)O)cc2)nnn1-c1ccc(Cl)cc1	i
O=C1CCSCC(C(=O)NCCOc2ccccc2)N1 (centres undefined)	i
CSCCC(C)(O)CNC(=O)C(=O)Nc1ccc2c(c1)OCCO2 (centres undefined)	i
COc1cccc(N2CC(c3nc4ccccc4n3Cc3cccc(C)c3)CC2=O)c1 (centres undefined)	i
O=C(Cn1cnc2c(oc3ccccc32)c1=O)Nc1ccc(F)c(Cl)c1	i
Cc1oc2cc(OC(=O)N3CCOCC3)ccc2c(=O)c1-c1ccc(Br)cc1	i
COc1ccc(CCNC(=O)CCCn2c(=S)[nH]c3cc4c(cc3c2=O)OCO4)cc1OC	i
COc1cc(OC)cc(C(=O)N2CCN(c3nnc(SCC(=O)Nc4ccccc4)s3)CC2)c1	i
O=C(c1ccc(Br)o1)N1CCC(Oc2cnccn2)CC1	i
CCOCC(=O)N1C2CCC1COC2	i
CSc1ccccc1C(=O)N(CCc1cccs1)Cc1ccco1	i
Cc1cc(C(=O)N(Cc2cccs2)Cc2cccn2C)c(C)o1	i
COc1ccc2c(c1)c(CC(=O)Nc1ccc(Cl)cc1)c(C)n2C(=O)c1ccc(Cl)cc1	i
O=C(NCC1(CO)CC1)c1ccc(Cl)c(Cl)c1	i
Cc1ccc(NCCn2c(C)c(C)n3c4c(=O)n(C)c(=O)n(C)c4nc23)cc1C	i
Cn1cc(-c2nc(-c3ccccc3Cl)no2)c(=O)c2ccccc21	i
CC1CCN(S(=O)(=O)c2cccn(CC(=O)NCc3ccccc3Cl)c2=O)CC1	i
Cn1c(C2CCCN(S(C)(=O)=O)C2)nn(CC(=O)N2CCOCC2)c1=O (centres undefined)	i
CCC(C)n1c(=O)c2ccccc2n(Cc2nc(-c3cc(OC)cc(OC)c3)no2)c1=O (centres undefined)	i
COc1ccc2c(=O)c(Oc3ccccc3Br)coc2c1	i
CCN(CC)C(=O)Cn1cc(C(=O)C(=O)N(CCOC)CCOC)c2ccccc21	i
COC1(CNS(=O)(=O)c2ccc3c(c2)CCCC3)CCSC1 (centres undefined)	i
Cc1ccc(S(=O)(=O)N(Cc2ccc(Cl)c(Cl)c2)C(=O)N2CCN(C)CC2)cc1	i
CC(=O)Cn1c(=O)c2c(nc3n(-c4ccc(Cl)cc4)c(-c4ccccc4)cn23)n(C)c1=O	i
COc1ccccc1-c1csc(-c2nnn(-c3cc(C)ccc3OC)c2N)n1	i
CCOC(=O)Cc1csc(NC(=O)c2cc3ccccc3o2)n1	i
COc1ccc(N2CC(c3noc(Cc4cccs4)n3)CC2=O)cc1 (centres undefined)	i
O=C(CN1C(=O)CCC1=O)NCC1(c2cccs2)CC1	i
CCOc1ccc(S(=O)(=O)NCC#CCN2CCCC2)cc1	i
CCOc1ccc(-c2noc(-c3sccc3S(=O)(=O)N(C)c3ccccc3)n2)cc1OC	i
CCc1cccc(-n2nnc(C(=O)NCc3ccc(F)cc3F)c2-c2cccnc2)c1	i
More results:
SMILES	GIRK2 activ
COc1ccc(-n2c(C)cn3c4c(=O)n(Cc5ccccc5)c(=O)n(C)c4nc23)cc1	i
Cc1ccc(N2C(=O)CC(Sc3ncccc3C(=O)O)C2=O)c(Br)c1 (centres undefined)	i
NC(=O)Cc1csc(NC(=O)Cn2ccc3ccccc32)n1	i
COCCN(Cc1ccoc1)C(=O)c1cccnc1SC	i
Cc1cccc(S(=O)(=O)N2CCCCCC2)c1	i
COC(=O)NCCCn1ccnc1-c1ccccc1	i
Cc1noc(CNC(=O)CCn2cnc3ccccc3c2=O)n1	i
Cc1cc(C(=O)N2CC(c3nc(Cc4ccccc4)no3)C2)c(C)o1	i
CCOc1ccc(OCC)c(S(=O)(=O)NCCn2nc(-c3ccc(OC)cc3)ccc2=O)c1	i
COc1cc(OC)c(NC(=O)Cc2nnc(-c3sccc3C)o2)cc1Cl	i
CCC(=O)Nc1ccc(C)c(-c2ccc(C(=O)NCC3CC3)cc2)c1	i
CCCCc1ccc(NC(=O)Cn2nc(C3CCN(S(C)(=O)=O)CC3)n(C)c2=O)cc1	i
O=C(Nc1ccc(-n2cnnn2)cc1)c1ccc(=O)oc1	i
Cc1cc(C)n(-c2ccc(=O)n(C(C)C(=O)Nc3ccc4c(c3)OCCO4)n2)n1 (centres undefined)	i
COCC(=O)Nc1cccc(-c2csc3nc(C)c(C)c(=O)n23)c1	i
Cc1cc(SCC(N)=O)nc(C(C)C)n1	i
Cn1c(C2CCN(S(C)(=O)=O)CC2)nn(Cc2ccccc2Cl)c1=O	i
Cc1ccc(Cl)cc1S(=O)(=O)NCCCn1ccnc1-c1ccccc1	i
O=C(NCCCN1CCOCC1)C1CC(=O)N(c2ccccc2)C1 (centres undefined)	i
O=C(NC(C(=O)O)c1ccccc1)NC12CC3CC(CC(C3)C1)C2 (centres undefined)	i
CC(/C=C/C(=O)NO)=C\[C@@H](C)C(=O)c1ccc(N(C)C)cc1	i
O=S(=O)(c1ccc2c(c1)CCCC2)N1CCOC(Cc2ccccc2)C1 (centres undefined)	i
COCC1CCCNC1 (centres undefined)	i
Cc1ccc(-n2c(N)c(C(=O)NC3CCCCC3)sc2=S)cc1	i
Cc1nnc(SCC(=O)NC(C)(C)C)c2c1cnn2-c1ccccc1	i
COc1ccc(NC(=O)c2ccc3nn(CC(=O)Nc4cc(Cl)ccc4OC)c(=O)n3c2)cc1	i
CC(C)CNc1nc2c(c(=O)[nH]c(=O)n2C)n1CC(=O)c1ccccc1	i
CN(Cc1c(F)cccc1Cl)C(=O)COc1cc(=O)n2ccccc2n1	i
Cn1c(-c2ccccn2)nn(CCNC(=O)c2csc(-c3ccccc3)n2)c1=O	i
COC(CNc1nc(N2CCCC2)c2n[nH]nc2n1)OC	i
COc1cc(Nc2c(C#N)cnc3ccccc23)cc(OC)c1OC	i
COc1ccc(Cc2nnc(C3CCN(CC(=O)Nc4cc(C)on4)CC3)s2)cc1	i
Cc1noc(C)c1Cn1cccc(S(=O)(=O)N2CCCC2)c1=O	i
COc1coc(C(=O)Nc2ccccc2SC)cc1=O	i
COc1ccc(N2C(=O)CC(Sc3ccccc3C(=O)O)C2=O)c([N+](=O)[O-])c1 (centres undefined)	i
CCCn1cc(-c2nc(-c3cccc(OC)c3OC)no2)c(=O)c2cc(F)ccc21	i

In another format: entries from further up
GIRK2 activ	SMILES
i	O=C(/C=C/c1ccc(F)cc1)Nc1ccccc1-c1ccc(=O)[nH]n1
i	CCC1SC(CC)C(=O)N(CC(=O)NC2CCCCC2)C1=O (centres undefined)
i	CCOc1ccccc1NC(=O)N1CCOC2(CCOCC2)C1
i	O=C(NCC1CCN(Cc2cccs2)CC1)c1cnccn1
i	O=C(NCCc1csc2nc(-c3ccccc3F)nn12)c1cnn(-c2ccccc2)n1

Other compounds follow.
SMILES	GIRK2 activ
COc1cccc(-c2ccc(=O)n(Cc3nc(-c4cccc(Br)c4)no3)n2)c1	i
COc1ccc2c(=O)c3c(oc2c1)C(=O)N(c1nnc(C)s1)C3c1ccccc1OC (centres undefined)	i
O=C(NCCC(O)c1ccoc1)C(=O)Nc1ccccc1Cl (centres undefined)	i
COCCn1c(C)cc(C(=O)CSc2cc(C)c3ccccc3n2)c1C	i
CN(C)CC1CSCCCN1S(=O)(=O)c1ccc(C(F)(F)F)cc1 (centres undefined)	i
O=C(Nc1cnc(N2CCCC2)nc1)c1ccc(F)cc1F	i
Cc1cc2oc(=O)cc(CN3CCN(c4ccccc4)CC3)c2c(C)c1Cl	i
Cc1cc(NC(=O)c2ccccc2)n(-c2nc3c(F)cccc3s2)n1	i
COC(=O)c1ccc(S(=O)(=O)NCC2CCN(C(=O)NC(C)(C)C)CC2)cc1	i
O=C(NCC1CCS(=O)(=O)C1)c1ccc2c(c1)OCO2 (centres undefined)	i
Cc1cccc(NC(=O)Cn2nc3n(c(=O)c2=O)CCN3c2ccccc2)c1C	i
COC(=O)COc1ccc2c(=O)c(-c3ccc(OC)c(OC)c3)coc2c1	i
CCc1nc2sc(C(c3ccc(Cl)cc3)N3CCN(Cc4ccccc4)CC3)c(O)n2n1 (centres undefined)	i
Cc1ccc(C)c2sc(N(C)CC(=O)Nc3ccc4cn[nH]c4c3)nc12	i
Cc1cccc(N2CCn3c2nc2c3c(=O)n(C)c(=O)n2C)c1C	i
CCc1cc2c(=O)n(Cc3ccco3)c(SCc3cc(=O)[nH][nH]3)nc2s1	i
COc1ccc(OC)c(-c2c(C)c3ccc(O)cc3oc2=O)c1	i
COc1ccc(S(=O)(=O)N2CCSC2c2ccccc2Cl)cc1 (centres undefined)	i
Cc1cc(C(O)CCNC(=O)Nc2ccccc2C(F)(F)F)c(C)o1 (centres undefined)	i
COCCCn1c(C(=O)Nc2cc(Cl)ccc2OC)cc2c(=O)n(C)c(=O)n(C)c21	i
Cc1c(C(=O)Nc2cccc3nsnc23)nnn1-c1nc(-c2ccccc2)cs1	i
CCN(CC)c1nc2ccsc2c(=O)n1CCC(=O)N1CCN(c2ccccc2)CC1	i
COc1ccc2c(=O)c3c(oc2c1)C(=O)N(CCN(C)C)C3c1cccc(F)c1 (centres undefined)	i
COc1ccc(CCNC(=O)N2CCCC(c3nnc(-c4cccs4)o3)C2)cc1 (centres undefined)	i
CC(C(=O)Nc1nc2c(s1)CCCC2)n1nc(-c2ccc(F)cc2)ccc1=O (centres undefined)	i
CN1CCN(c2ccc(-c3ccc(NC(=O)Nc4cccc(Cl)c4)cc3)nn2)CC1	i
COCCn1c(N2CCN(Cc3ccccc3F)CC2)nc2c1c(=O)[nH]c(=O)n2C	i
CCNC(=O)CCc1csc(NC(=O)Nc2ccccc2)n1	i
O=C(CSc1nccnc1N1CCN(c2ccccc2)CC1)Nc1cc(Cl)ccc1Cl	i
O=C(CSc1nc(-c2cccs2)cc(C(F)(F)F)n1)N1CCOCC1	i
Cc1ccc(Cl)cc1N1CCN(S(=O)(=O)C2CC2)CC1	i
COc1ccc(Cl)cc1C(=O)Nc1c2c(nn1CC(=O)NCc1ccco1)CSC2	i

Among those listed so far, 16 have an aryl thioether with sulfur outside any ring:
SMILES	GIRK2 activ
Cc1ccc(-n2ccnc(SCC(=O)Nc3ccccc3F)c2=O)cc1	i
CSc1cccc(NC(=O)c2nnn(-c3ccc(Cl)cc3)n2)c1	i
O=C(CSc1nc2[nH]ncc2c(=O)n1-c1ccccc1)NCC1CCCO1 (centres undefined)	i
CSc1nc2n(n1)C(/C=C/c1ccccc1)C(C(N)=O)=C(C)N2 (centres undefined)	i
COc1cc(OC)cc(C(=O)N2CCN(c3nnc(SCC(=O)Nc4ccccc4)s3)CC2)c1	i
CSc1ccccc1C(=O)N(CCc1cccs1)Cc1ccco1	i
Cc1ccc(N2C(=O)CC(Sc3ncccc3C(=O)O)C2=O)c(Br)c1 (centres undefined)	i
COCCN(Cc1ccoc1)C(=O)c1cccnc1SC	i
Cc1cc(SCC(N)=O)nc(C(C)C)n1	i
Cc1nnc(SCC(=O)NC(C)(C)C)c2c1cnn2-c1ccccc1	i
COc1coc(C(=O)Nc2ccccc2SC)cc1=O	i
COc1ccc(N2C(=O)CC(Sc3ccccc3C(=O)O)C2=O)c([N+](=O)[O-])c1 (centres undefined)	i
COCCn1c(C)cc(C(=O)CSc2cc(C)c3ccccc3n2)c1C	i
CCc1cc2c(=O)n(Cc3ccco3)c(SCc3cc(=O)[nH][nH]3)nc2s1	i
O=C(CSc1nccnc1N1CCN(c2ccccc2)CC1)Nc1cc(Cl)ccc1Cl	i
O=C(CSc1nc(-c2cccs2)cc(C(F)(F)F)n1)N1CCOCC1	i

A portion of the library, so the mix of outcomes need not match the whole.
